Assay outcomes from PubChem BioAssay.
Ecoli rRNA inh – inhibitors of bacterial rRNA selective over humanized ribosomes | E. coli WT GFP vs humanized-ribosome RFP mutants, fluorescence, 24 h; active compounds read low; DMSO median 0, no signal -100 | GFP signal change (wild-type ribosome), % (test concentration not listed) | 350,000 compounds, 1.6% hits;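 active = significant combined selectivity score with lowered wild-type GFP, culture density cut under 30%, mutant RFP and density less affected; inactive = any of these conditions unmet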; note: one replicate is shown; some compounds called inactive have numbers as strong as hits
Ecoli rRNA inh OD600 – recorded beside Ecoli rRNA inh, whose call it bears; OD600 change, %; measured here: OD600 growth;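 optical density of the mix in the first replicate; 0 = DMSO median and -100 = no signal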
Ecoli rRNA inh RFP – recorded beside Ecoli rRNA inh, whose call it bears; RFP signal change, %; measured here: RFP humanized mutant strains;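 first replicate; 0 = DMSO median and -100 = no signal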
* marks the source's active call; other numbers are inactive results; & = joins results of further samples. These rows are one share of the data; rates above refer to the full screens.

Start of the data: the first 5 records, to show the layout:
SMILES | Ecoli rRNA inh | Ecoli rRNA inh OD600 | Ecoli rRNA inh RFP
COc1ccccc1NC(=O)N[C@@H]1CC[C@@H](CCNC(=O)c2ccc3c(c2)OCO3)O[C@@H]1CO | -1 | -4 | 0.4
COc1ccc(S(=O)(=O)Nc2ccc3c(c2)C(=O)N([C@H](C)CO)C[C@H](C)[C@H](CN(C)S(C)(=O)=O)OCCCC[C@H](C)O3)cc1 | -3 | -7 | 1.3
CCC(=O)N1[C@H](CO)[C@@H]2c3ccccc3N(C(=O)Nc3ccccc3Cl)C[C@@H]21 | 1 | -3 | -0.5
C[C@H](CO)N1C[C@H](C)[C@H](CN(C)Cc2ccc(C(=O)Nc3ccccc3N)cc2)Oc2ccc(NC(=O)Cc3cn(C)c4ccccc34)cc2CC1=O | 0 | 5 | -3.3
COc1ccc(NC(=O)Nc2ccc3c(c2)[C@@H]2C[C@H](CC(=O)NCc4ccccn4)O[C@@H](CO)[C@@H]2O3)cc1 | -4 | 11 | 16

This part in full, repeating the preview:
SMILES | Ecoli rRNA inh | Ecoli rRNA inh OD600 | Ecoli rRNA inh RFP
COc1ccccc1NC(=O)N[C@@H]1CC[C@@H](CCNC(=O)c2ccc3c(c2)OCO3)O[C@@H]1CO | -1 | -4 | 0.4
COc1ccc(S(=O)(=O)Nc2ccc3c(c2)C(=O)N([C@H](C)CO)C[C@H](C)[C@H](CN(C)S(C)(=O)=O)OCCCC[C@H](C)O3)cc1 | -3 | -7 | 1.3
CCC(=O)N1[C@H](CO)[C@@H]2c3ccccc3N(C(=O)Nc3ccccc3Cl)C[C@@H]21 | 1 | -3 | -0.5
C[C@H](CO)N1C[C@H](C)[C@H](CN(C)Cc2ccc(C(=O)Nc3ccccc3N)cc2)Oc2ccc(NC(=O)Cc3cn(C)c4ccccc34)cc2CC1=O | 0 | 5 | -3.3
COc1ccc(NC(=O)Nc2ccc3c(c2)[C@@H]2C[C@H](CC(=O)NCc4ccccn4)O[C@@H](CO)[C@@H]2O3)cc1 | -4 | 11 | 16
CO[C@@H]1CN(C)C(=O)c2cc(NS(=O)(=O)c3ccc(Cl)cc3)ccc2OC[C@@H](C)N(C(=O)NC(C)C)C[C@@H]1C | -1 | -3 | 0.2
CC(=O)Nc1cccc2c1O[C@H](CN(C)C(=O)NC(C)C)[C@H](C)CN(C)C2=O | 3 | 11 | -0.1
C[C@H](CO)N1C[C@H](C)[C@@H](CN(C)C)Oc2cc(C3=CCCCC3)ccc2S1(=O)=O | -2 | 6 | 2.6
COc1cccc(-c2cn(CC[C@@H]3CC[C@@H](NC(C)=O)[C@@H](CO)O3)nn2)c1 | 0 | -1 | -2.6
CC(C)NC(=O)Nc1cccc2c1O[C@H](CN(C)S(C)(=O)=O)[C@H](C)CN([C@H](C)CO)C2=O | 2 | 8 | 0.1
CO[C@H]1CN(C)C(=O)c2cc(NC(=O)c3cnccn3)ccc2OC[C@@H](C)N(CC2CC2)C[C@H]1C | 1 | -2 | -1.3
O=S(=O)(c1ccccc1)N1[C@@H]2CNC[C@H]1C2c1ccc(-c2cccc(F)c2)cc1 (stereo partly specified) | -5&-57 | -4&-78 | 2.2&-13
O=C(C1CC1)N1CC(=O)N2[C@@H](CO)[C@@H](c3ccc(C#Cc4cccc(F)c4)cc3)[C@@H]2C1 | 3 | -12 | 5.0
C[C@H](CO)N1C[C@H](C)[C@H](CN(C)C(=O)Cc2ccccn2)Oc2ncc(C#CC3CCCCC3)cc2C1=O | 0 | -2 | -1.5
CC(C)CC#Cc1ccc([C@@H]2[C@@H](CO)N3C(=O)CN(C(=O)Cc4cccnc4)C[C@@H]23)cc1 | 1 | -14 | 5.3
CCCN1C[C@H](C)[C@H](OC)CN(C)C(=O)c2cc(NC(=O)CC)ccc2OC[C@@H]1C | 2 | 5 | 0.3
N#CCC1(O)C(=O)N(Cc2ccccc2)c2ccccc21 (stereo unspecified) | 4 | 15 | -4.1
C[C@@H]1CN([C@H](C)CO)S(=O)(=O)c2ccc(C#Cc3ccccc3)cc2O[C@@H]1CN(C)C | -1 | 14 | 8.6
COc1ccc(S(=O)(=O)N(C)C[C@@H]2Oc3c(NC(=O)Nc4ccccc4)cccc3C(=O)N([C@H](C)CO)C[C@H]2C)cc1 | 2 | 4 | -2.6
C[C@@H]1CN([C@H](C)CO)C(=O)c2cc(-c3cccnc3)cnc2O[C@@H]1CN(C)C | -5 | -4 | -2.0
Cc1ccc(-c2cnc3c(c2)C(=O)N([C@@H](C)CO)C[C@H](C)[C@H](CN(C)Cc2ccccc2C(=O)O)O3)cc1 | 7 | 3 | -1.4
CC(C)OCCCNC(=O)CN1C(=O)CSc2ccc(S(=O)(=O)N3CCOCC3)cc21 | 11 | 13 | -0.6
COC(=O)C[C@@H]1CC[C@H](NC(=O)Nc2ccc(F)cc2)[C@@H](CO)O1 | 13 | 12 | 2.1
CCCc1nc2c3ccccc3ccn2c1Cc1cccc(Cl)c1 | -3 | 3 | 1.7
C/C=C/c1ccc2c(c1)O[C@@H](CN(C)C(=O)Nc1ccccc1)[C@@H](C)CN([C@@H](C)CO)S2(=O)=O | -9 | -10 | -0.7

Reformatted in CSV form: 5 of the compounds above
smiles,Ecoli rRNA inh,Ecoli rRNA inh OD600,Ecoli rRNA inh RFP
COc1cccc(-c2cn(CC[C@@H]3CC[C@@H](NC(C)=O)[C@@H](CO)O3)nn2)c1,0,-1,-2.6
CC(C)NC(=O)Nc1cccc2c1O[C@H](CN(C)S(C)(=O)=O)[C@H](C)CN([C@H](C)CO)C2=O,2,8,0.1
CO[C@H]1CN(C)C(=O)c2cc(NC(=O)c3cnccn3)ccc2OC[C@@H](C)N(CC2CC2)C[C@H]1C,1,-2,-1.3
O=S(=O)(c1ccccc1)N1[C@@H]2CNC[C@H]1C2c1ccc(-c2cccc(F)c2)cc1 (stereo partly specified),-5&-57,-4&-78,2.2&-13
O=C(C1CC1)N1CC(=O)N2[C@@H](CO)[C@@H](c3ccc(C#Cc4cccc(F)c4)cc3)[C@@H]2C1,3,-12,5.0

(more compounds)
SMILES | Ecoli rRNA inh | Ecoli rRNA inh OD600 | Ecoli rRNA inh RFP
C[C@H](CO)N1C[C@H](C)[C@H](CN(C)C(=O)Cc2ccccc2)Oc2cc(C3=CCCCC3)ccc2S1(=O)=O | -9 | -29 | 11
CN(C)c1ccc2c(c1)[C@@H]1C[C@@H](CC(=O)NCc3ccncc3)O[C@H](CO)[C@@H]1O2 | 7 | 10 | 1.7
C=CCNC(=O)CSc1nnc(-c2cccc(S(=O)(=O)N3CCOCC3)c2)o1 | 8 | 18 | 0.0
C[C@@H]1CCCCO[C@H](CN(C)Cc2ccc(C(=O)O)cc2)[C@@H](C)CN([C@@H](C)CO)C(=O)c2cc(NC(=O)c3ccccc3)ccc2O1 | 2 | 5 | -3.9
C[C@@H]1CN([C@@H](C)CO)C(=O)c2cc(NC(=O)C3CC3)ccc2O[C@@H]1CN(C)CC1CC1 | 2 | 5 | -1.8
CCCN1C[C@@H](C)[C@H](OC)CN(C)C(=O)c2ccc(NC(=O)Nc3c(C)noc3C)cc2OC[C@H]1C | 3 | 3 | 0.4
C[C@@H]1CCCCO[C@@H](CN(C)Cc2ccc(C(=O)O)cc2)[C@H](C)CN([C@H](C)CO)C(=O)c2cc(NS(=O)(=O)c3ccc(F)cc3)ccc2O1 | 2 | -3 | -1.9
CC(C)C(=O)Nc1ccc2c(c1)C(=O)N(C)[C@@H]1CC[C@H](CC(=O)NCC3CC3)O[C@H]1CO2 | 3 | 5 | -2.9
CO[C@H]1CC[C@H]2CCN(C)C(=O)[C@H](C)[C@@H](OC)CN(C)C(=O)c3cccc(C#N)c3OC[C@H]1O2 | 1 | 2 | 0.0
CCS(=O)(=O)NCC[C@H]1CC[C@H](NC(=O)Cc2ccccn2)[C@@H](CO)O1 | 2 | -4 | 2.1
O=C(N[C@H]1C=C[C@@H](CC(=O)N2CCc3ccccc3C2)O[C@@H]1CO)C1CCC1 | 2 | 3 | 1.0
COc1ccc(-c2cnc3c(c2)C(=O)N([C@@H](C)CO)C[C@H](C)[C@@H](CN(C)C(=O)Cc2ccccn2)O3)cc1 | 1 | 3 | -0.2
C[C@H]1CN([C@@H](C)CO)C(=O)c2cc(NC(=O)CCN3CCOCC3)ccc2O[C@@H]1CN(C)S(=O)(=O)c1cccs1 | 1 | 14 | 1.4
CC(C)NC(=O)Nc1ccc2c(c1)C(=O)N([C@H](C)CO)C[C@H](C)[C@H](CN(C)Cc1ccc3c(c1)OCO3)OCCCC[C@@H](C)O2 | 4 | 3 | 0.1
C/C=C/c1ccc([C@H]2[C@@H](CO)N(CC3CC3)C23CN(S(C)(=O)=O)C3)cc1 | 1 | -3 | -3.9
CO[C@H]1CN(C)C(=O)c2cc(NC(=O)C3CC3)ccc2OC[C@@H](C)N(Cc2cc(F)ccc2F)C[C@@H]1C | -7 | -26 | -3.2
C[C@@H]1CN([C@@H](C)CO)C(=O)c2cc(C#CC(C)(C)O)cnc2O[C@@H]1CN(C)C(=O)c1ccccc1F | 3&4 | 10&7 | -4.1&-0.6
CC(=O)N(C)C[C@@H]1Oc2cc(C#Cc3cccnc3)ccc2S(=O)(=O)N([C@@H](C)CO)C[C@@H]1C | 1 | 8 | -1.1
O=C(C[C@H]1CC[C@H]2[C@@H](COC[C@H](O)CN2Cc2cc(F)ccc2F)O1)N[C@@H]1CCN(Cc2ccccc2)C1 | -1 | 1 | 0.6
O=C(C[C@H]1C[C@H]2c3cc(NC(=O)Nc4ccccc4F)ccc3O[C@H]2[C@@H](CO)O1)NCC1CC1 | 3 | -3 | 0.2
CC1=C(C(=O)N(C)C)CC(CC(=O)NCc2cccc3ccccc23)C(=O)N1CCCN1CCCC1=O (stereo unspecified) | 10 | 5 | 0.0
Cc1nc2c(OCc3ccc(C(F)(F)F)cc3)cccn2c1N(C)Cc1cccs1 | -58 | -78 | -17
CCCNC(=O)Nc1ccc2c(c1)C(=O)N(C)C[C@@H](OC)[C@H](C)CN(Cc1ccccn1)[C@@H](C)CO2 | 2 | 7 | -1.9
C[C@@H]1CCCCO[C@H](CN(C)C(=O)c2ccncc2)[C@H](C)CN([C@@H](C)CO)C(=O)c2cc(NS(=O)(=O)c3cccs3)ccc2O1 | -1 | -3 | 0.7
CCc1nc2c(OCc3ccccc3)cccn2c1N(Cc1ccccc1)C(C)=O | -13 | -15 | -4.0
Additional structures follow.
SMILES | Ecoli rRNA inh | Ecoli rRNA inh OD600 | Ecoli rRNA inh RFP
Cn1cnc(S(=O)(=O)N[C@H]2CC[C@@H](CC(=O)NCC3CC3)O[C@@H]2CO)c1 | -3 | 5 | -2.4
CCC(=O)N1CCCCN2[C@H](CO)[C@H](c3ccc(C#Cc4ccccc4F)cc3)[C@H]2C1 | -57 | -79 | -19
O=C(N[C@H]1CC[C@@H](CCNS(=O)(=O)c2cccc(Cl)c2)O[C@H]1CO)c1ccncc1 | 0 | 3 | -1.2
O=C(Cc1ccccn1)N1CC(=O)N2[C@H](CO)[C@@H](c3ccc(C#CC4CCCC4)cc3)[C@@H]2C1 | 0 | -3 | 1.2
OC[C@@H]1Nc2ccc(-c3cccc(F)c3)cc2[C@@H]2[C@H]1CCN2Cc1ccc(F)cc1 | -56 | -77 | -19
C[C@H]1CN([C@@H](C)CO)C(=O)Cc2cc(NC(=O)Cn3cnnn3)ccc2O[C@H]1CN(C)S(=O)(=O)c1ccc(Cl)cc1 | 3 | 7 | 0.6
O=C(CN1CCOCC1)N(CC1CCC1)C[C@H]1N[C@H](CO)[C@@H]1c1ccccc1 | 1 | -4 | -1.3
C[C@@H]1CN([C@@H](C)CO)S(=O)(=O)c2ccc(-c3ccncc3)cc2O[C@H]1CN(C)C(=O)CN(C)C | 2 | -3 | -2.8
CC(CNC(=O)CC[C@H]1O[C@@H](n2ccc(=O)[nH]c2=O)[C@H](O)[C@@H]1O)c1ccccc1 (stereo partly specified) | 2 | 10 | -7.8
CCCNC(=O)C[C@H]1CC[C@H]2[C@@H](COC[C@H](O)CN2C(=O)c2cccnc2)O1 | 3 | 5 | 3.8
CC1(C(=O)NCCc2ccccc2)Cc2c(-c3cccc(C(N)=O)c3)ccnc2O1 (stereo unspecified) | -12 | -46 | -9.3
COc1ccc(CN(C)C[C@@H]2Oc3ccc(NS(=O)(=O)c4c(C)noc4C)cc3C(=O)N([C@@H](C)CO)C[C@@H]2C)cc1 | 3 | 5 | -0.9
COc1ccc(NC(=O)N(C)C[C@@H]2OCCCC[C@@H](C)Oc3ccc(NC(=O)NC(C)C)cc3C(=O)N([C@@H](C)CO)C[C@H]2C)cc1 | 3 | 0 | 0.0
C[C@H]1CN([C@@H](C)CO)C(=O)CCCn2cc(nn2)CO[C@@H]1CN(C)Cc1ccc2c(c1)OCCO2 | 3 | -2 | -0.4
C[C@@H]1CN([C@@H](C)CO)C(=O)CCCn2cc(nn2)CO[C@@H]1CN(C)C(=O)Nc1ccc(C(F)(F)F)cc1 | -2 | -12 | -0.3
COc1ccc2c3c([nH]c2c1)[C@@H](CO)N(C(=O)c1cccc(F)c1)CC31CN(C(=O)c2ccccc2)C1 | -4 | -12 | 0.8
C[C@H](CO)N1C[C@H](C)[C@@H](CN(C)Cc2ccc(Cl)c(Cl)c2)Oc2ccc(NS(=O)(=O)c3cn(C)cn3)cc2C1=O | -2 | -11 | 0.5
CN1C(=O)c2cc(NC(=O)NC3CCCC3)ccc2OC[C@H]2O[C@@H](CC(=O)O)CC[C@H]21 | -1 | 4 | -1.4
CO[C@@H]1CC[C@H]2CCOc3ccc(C#N)cc3C(=O)N(C)C[C@H](C)C(=O)N(C)C[C@@H]1O2 | 2 | -1 | -0.8
Cc1ccc(-c2ccc([C@@H]3[C@H](CO)N4C(=O)CN(C(=O)c5ccncc5)C[C@@H]34)cc2)cc1 | -4 | 0 | -3.4
